PV pol inh = poliovirus RNA polymerase inhibition; P03300; poliovirus polymerase elongation, fluorescence polarization; hits give low values; % elongation, % (compound at 16.7 µg/mL); 0.66% of 150,000 active; AID 588519; in the data active = % elongation below about 90%; note: some results filed as inactive read as strong as hits
Target sequence (P03300 1749-2209 limits assumed): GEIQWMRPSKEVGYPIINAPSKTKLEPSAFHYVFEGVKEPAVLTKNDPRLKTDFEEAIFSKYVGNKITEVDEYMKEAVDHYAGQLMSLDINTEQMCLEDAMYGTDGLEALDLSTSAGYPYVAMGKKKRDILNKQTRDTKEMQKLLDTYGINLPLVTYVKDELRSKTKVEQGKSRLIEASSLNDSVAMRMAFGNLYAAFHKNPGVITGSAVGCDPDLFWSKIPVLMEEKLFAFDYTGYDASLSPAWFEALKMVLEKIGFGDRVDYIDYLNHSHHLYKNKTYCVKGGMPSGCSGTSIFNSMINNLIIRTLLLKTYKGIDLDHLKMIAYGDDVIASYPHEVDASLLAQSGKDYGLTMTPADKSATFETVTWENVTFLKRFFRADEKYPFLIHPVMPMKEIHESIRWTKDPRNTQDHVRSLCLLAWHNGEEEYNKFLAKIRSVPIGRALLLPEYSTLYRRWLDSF
Mtb MbtI inh = blocks the Mycobacterium tuberculosis siderophore enzyme MbtI; purified MbtI enzyme, fluorescence intensity read-out; inhibition, %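 (about 17 µg/mL by stock and volumes)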; 0.89% of 100,000 active;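 active = above 50% in both replicates, above 80% if mildly self-fluorescent; inactive = the rest, strongly fluorescent compounds included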;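 note: 0% = mean of negative and 100% = mean of positive controls; one replicate is shown; some compounds called inactive have numbers as strong as hits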
MenB inh = Mtb MenB enzyme inhibition; P9WNP5; MenB enzyme assay, absorbance read-out; some hits fall short of the stated cut; inhibition, %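 (about 12 µg/mL by stock and volumes)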; 0.43% of 100,000 active;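 active = mean of two replicates above 30%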;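 note: 0% = no compound and 100% = wells with inactive enzyme; the first replicate is given; strong numbers were not always called active; inactives centre near -10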
Target sequence (P9WNP5 whole entry, looked up): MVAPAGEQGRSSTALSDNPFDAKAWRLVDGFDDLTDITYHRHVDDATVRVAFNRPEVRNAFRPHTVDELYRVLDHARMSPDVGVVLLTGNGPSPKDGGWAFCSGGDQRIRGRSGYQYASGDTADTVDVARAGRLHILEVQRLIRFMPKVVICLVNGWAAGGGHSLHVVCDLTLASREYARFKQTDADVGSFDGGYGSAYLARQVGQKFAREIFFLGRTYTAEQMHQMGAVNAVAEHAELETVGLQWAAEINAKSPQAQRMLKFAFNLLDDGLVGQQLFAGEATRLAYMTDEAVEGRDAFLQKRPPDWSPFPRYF
PV pol inh intensity = also measured in PV pol inh; calls as there; % elongation; measured here: total intensity read-out; formula for this scale not given here;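 total fluorescence in place of polarization; lower means less elongation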
* = called active by the depositor; & = joins results of further samples.

`CC(=O)N1c2ccc(S(=O)(=O)NCC3CCC(C(=O)NC4CCCC4)CC3)cc2CC1C` (stereo not given) gave PV pol inh 103, Mtb MbtI inh 16, MenB inh 5 and PV pol inh intensity 95.
CC1=NN(c2ccccc2)C(=O)/C1=C/c1c(C)[nH]n(-c2ccccc2)c1=O was read as PV pol inh 98, Mtb MbtI inh 3, MenB inh -53 and PV pol inh intensity 101.
O=C(OCCCn1c(=O)[nH]c2ccccc21)c1ccc(S(=O)(=O)N2CCOCC2)cc1 was read as PV pol inh 103, Mtb MbtI inh -5, MenB inh -1 and PV pol inh intensity 109.
Screening N/C(=N\S(=O)(=O)c1ccc(Cl)cc1)Nc1nc2ccccc2o1 returned PV pol inh 102, Mtb MbtI inh 8, MenB inh -3 and PV pol inh intensity 100.
For c1ccc(C2N3CCCN23)cc1 (stereo not given) the results were PV pol inh 104, Mtb MbtI inh -8, MenB inh 5 and PV pol inh intensity 105.
Cc1cc(C=C(C#N)C#N)c(C)n1-c1ccccc1 was read as PV pol inh 102, Mtb MbtI inh 3, MenB inh -5 and PV pol inh intensity 104.
O=C1CCCC(O)=C1C=Nc1cccc2ccccc12 was read as PV pol inh 102, Mtb MbtI inh -259, MenB inh -56 and PV pol inh intensity 102.
COc1ccc(-n2cnnc2SC(C)C(=O)N2CC(C)CC(C)C2)cc1 (stereo not given) was read as Mtb MbtI inh -15 and MenB inh -28.
For CCCCn1nc(C(=O)N2CCN(S(=O)(=O)c3ccccc3)CC2)c2ccccc2c1=O the results were PV pol inh 101, Mtb MbtI inh -6, MenB inh -13 and PV pol inh intensity 106.
OC1(c2ccccc2)C2CC3CC(C2)CC1C3 (stereo not given) was read as PV pol inh 100, Mtb MbtI inh -4, MenB inh -4 and PV pol inh intensity 95.
Screening Clc1ccc(N=c2scc(-c3cccs3)n2CCCN2CCOCC2)cc1 returned PV pol inh 101, Mtb MbtI inh 7, MenB inh 5 and PV pol inh intensity 108.
For CCCN1CCC(NC(=O)Nc2cccc(F)c2)CC1 the results were PV pol inh 101, Mtb MbtI inh -27, MenB inh -25 and PV pol inh intensity 105.
Screening Nc1c(C(=O)CCC(=O)O)oc2ccccc12 returned PV pol inh 103, Mtb MbtI inh 25, MenB inh 34 and PV pol inh intensity 103.
For CCCn1c(C(C)NC(=O)C(C)(C)C)nc2ccccc21 (stereo not given) the results were PV pol inh 99, Mtb MbtI inh 8, MenB inh -10 and PV pol inh intensity 100.
`O=S(=O)(NCc1ccccc1)c1ccc2c(c1)OCCO2` gave PV pol inh 105, Mtb MbtI inh -1, MenB inh -11 and PV pol inh intensity 109.
O=C(ON(C(=O)c1ccc(F)cc1)C1C2CC3CC(C2)CC1C3)c1ccc(F)cc1 (stereo not given) was read as PV pol inh 98, Mtb MbtI inh -9, MenB inh 0 and PV pol inh intensity 107.
For O=C1CC(c2ccccc2)OC12CCCCC2 (stereo not given) the results were PV pol inh 102, Mtb MbtI inh 8, MenB inh -7 and PV pol inh intensity 102.
CCc1nc2ccccc2c(C(=O)OCC(=O)c2ccccc2)c1C was read as PV pol inh 105, Mtb MbtI inh -8 and PV pol inh intensity 105.
`CCOC(=O)N1CCC(N=Cc2ccc(OC(C)C)cc2)CC1` gave PV pol inh 101, Mtb MbtI inh 8, MenB inh 4 and PV pol inh intensity 104.
Screening O/N=C(\c1ccccc1)C(O)c1ccccc1 (stereo not given) returned PV pol inh 104, Mtb MbtI inh 4, MenB inh -6 and PV pol inh intensity 109.
`c1ccc(-c2nnc(-c3cccc4ccccc34)o2)cc1` gave PV pol inh 104, Mtb MbtI inh -29, MenB inh -18 and PV pol inh intensity 107.
For CN1C(=O)/C(=C/c2ccc(C(=O)NCc3ccccc3)cc2)Oc2ccccc21 the results were PV pol inh 102, Mtb MbtI inh 110, MenB inh -19 and PV pol inh intensity 106.
Screening S=C(NCc1ccco1)NCC1CCCO1 (stereo not given) returned PV pol inh 99, Mtb MbtI inh 24, MenB inh -14 and PV pol inh intensity 103.
For CCn1c(CNC(=O)N(c2ccccc2)c2ccccc2)nnc1SC the results were PV pol inh 105, Mtb MbtI inh -5, MenB inh -78 and PV pol inh intensity 99.
Screening COc1cc(NC(=O)C2=C(N3CCOCC3)/C(=C\c3ccc(N(C)C)cc3)CCC2)cc(OC)c1OC returned PV pol inh 105, Mtb MbtI inh 26, MenB inh -20 and PV pol inh intensity 105.
For Cc1cc(/C=N/n2c(SCC(=O)O)nnc2C2CCCCC2)c(C)n1CC(C)C the results were PV pol inh 101, Mtb MbtI inh 0, MenB inh -43 and PV pol inh intensity 97.
Cc1ccc(CNC(=O)C2CCCN(S(=O)(=O)c3c(C)noc3/C=C/N(C)C)C2)cc1 (stereo not given) was read as PV pol inh 100, Mtb MbtI inh -6, MenB inh 9 and PV pol inh intensity 101.
For N#C/C(=C\c1ccc(C(F)(F)F)cc1)c1cccc(C(F)(F)F)c1 the results were PV pol inh 105, Mtb MbtI inh 48, MenB inh -2 and PV pol inh intensity 106.
Screening COC(=O)c1nnn(CC(=O)Nc2ccc(OC)cc2)c1N returned PV pol inh 103, Mtb MbtI inh 1, MenB inh -9 and PV pol inh intensity 105.
`COC(=O)c1cc(C(=O)c2ccccc2)n2c(=O)/c(=C\N(C)C)sc12` gave PV pol inh 118, Mtb MbtI inh 7, MenB inh -5 and PV pol inh intensity 119.
Screening CSc1nc2c(c(=O)[nH]1)C(c1ccc3c(c1)OCO3)CC(=O)N2 (stereo not given) returned PV pol inh 100, Mtb MbtI inh -10, MenB inh -9 and PV pol inh intensity 103.
Screening CCOc1cc(C)nc(NCCc2ccc(OC)c(OC)c2)n1 returned PV pol inh 101, Mtb MbtI inh -4, MenB inh -82 and PV pol inh intensity 104.
`N#CCNc1ccccc1` gave PV pol inh 98, Mtb MbtI inh -11, MenB inh 10 and PV pol inh intensity 105.
O=C(NC(C(=O)O)c1ccccc1)c1cccs1 (stereo not given) was read as PV pol inh 106, Mtb MbtI inh -7, MenB inh -17 and PV pol inh intensity 97.
CNC(=O)CSCc1c(C)noc1C was read as PV pol inh 101, Mtb MbtI inh 4, MenB inh -14 and PV pol inh intensity 103.
For Cc1cc(C)n(-c2nc3ccccc3nc2N2CCN(S(=O)(=O)c3ccccc3)CC2)n1 the results were PV pol inh 100, Mtb MbtI inh 0, MenB inh 3 and PV pol inh intensity 102.
Screening O=C(N/N=C1/CSC(=O)N1Cc1cccs1)c1cccs1 returned PV pol inh 103, Mtb MbtI inh -7, MenB inh -33 and PV pol inh intensity 101.
Screening NC(=O)COC(=O)c1cccc(S(=O)(=O)N2CCc3ccccc32)c1 returned PV pol inh 104, Mtb MbtI inh -2, MenB inh -13 and PV pol inh intensity 112.
O=C(Cc1ccccc1)c1cc(O)c(O)cc1O was read as PV pol inh 104, Mtb MbtI inh 63, MenB inh -83 and PV pol inh intensity 103.
Screening COc1ccc(OC)c(S(=O)(=O)NNC(=S)Nc2ccc3c(c2)OCO3)c1 returned PV pol inh 99, Mtb MbtI inh -17, MenB inh -11 and PV pol inh intensity 104.
`COCCN(C(=O)c1noc2c1CCCCC2)C1CCN(C(C)=O)CC1` gave PV pol inh 102, Mtb MbtI inh -18, MenB inh -15 and PV pol inh intensity 103.
`CC(=O)N(CN1C(=O)CCC1=O)c1ccc(Cl)c(Cl)c1` gave PV pol inh 100, Mtb MbtI inh -10, MenB inh -28 and PV pol inh intensity 101.
Screening O=C(CC(O)(c1ccccc1)C(F)(F)F)c1cccs1 (stereo not given) returned PV pol inh 104, Mtb MbtI inh 2, MenB inh 1 and PV pol inh intensity 102.
CCn1ncc2c1N1COCN(C2)c2c(cnn2CC)C1 was read as PV pol inh 104, Mtb MbtI inh -10, MenB inh -21 and PV pol inh intensity 109.
CN1CCC(N(C)C(=S)Nc2ccccc2)CC1 was read as PV pol inh 101, Mtb MbtI inh -5, MenB inh -13 and PV pol inh intensity 102.
COC(=O)C1CCN(C(=O)CCOc2ccc(OC)cc2)CC1 was read as PV pol inh 107, Mtb MbtI inh -15, MenB inh -13 and PV pol inh intensity 101.
For Cc1cccc(NC(=O)CNC(=O)CSc2nnnn2-c2ccccc2)c1C the results were PV pol inh 108, Mtb MbtI inh -9, MenB inh -34 and PV pol inh intensity 104.
`CCOc1ccc(NC(=O)COC(=O)c2cccc(OC)c2)cc1` gave PV pol inh 102, Mtb MbtI inh -8, MenB inh -7 and PV pol inh intensity 106.
O=c1c2c(-c3ccccc3)csc2ncn1-n1cccc1 was read as PV pol inh 105, Mtb MbtI inh -9 and PV pol inh intensity 107.
For COc1cc2c3c(c1OC)C1(C=CC(=O)C=C1)CC3N(C(C)=O)CC2 (stereo not given) the results were PV pol inh 104, Mtb MbtI inh -3, MenB inh 0 and PV pol inh intensity 103.
`CC(=O)N1c2ccc(S(=O)(=O)NC(Cc3ccccc3)C(=O)N3CCCCC3)cc2CC1C` (stereo not given) gave PV pol inh 103, Mtb MbtI inh -29, MenB inh -13 and PV pol inh intensity 103.
For CNC(=S)Nc1cc(Cl)ccc1OC the results were PV pol inh 99, Mtb MbtI inh -4, MenB inh -14 and PV pol inh intensity 103.
Screening C/C(=N\N)c1ccc2ccccc2c1 returned PV pol inh 106, MenB inh 9 and PV pol inh intensity 98.
`O=C(NCCN1CCOCC1)c1ccc2c(=O)n(Cc3ccc(Cl)cc3)c(=S)[nH]c2c1` gave PV pol inh 100, Mtb MbtI inh 1, MenB inh 9 and PV pol inh intensity 101.
For COc1ccccc1C(CC(=O)O)c1ccco1 (stereo not given) the results were PV pol inh 104, MenB inh 0 and PV pol inh intensity 110.
CCN(CC)Cc1c(O)ccc2c(=O)c(-c3ccccc3Cl)coc12 was read as PV pol inh 102, Mtb MbtI inh 115, MenB inh 11 and PV pol inh intensity 100.
For CCOC(=O)C1(CC)CC(C)(c2csc(N)n2)OC1=O (stereo not given) the results were PV pol inh 102, Mtb MbtI inh 47, MenB inh -24 and PV pol inh intensity 100.
Screening O=c1cc(-c2ccco2)oc2c1ccc1ccccc12 returned PV pol inh 102, Mtb MbtI inh 22, MenB inh -28 and PV pol inh intensity 97.
`COC(=O)Cc1csc(NC(C)(C)C)n1` gave PV pol inh 100, Mtb MbtI inh 0, MenB inh -19 and PV pol inh intensity 111.
`O=c1cc(-c2ccccc2)nc2cc(-c3ccccc3)[nH]n12` gave PV pol inh 104&99, Mtb MbtI inh -62&-14, MenB inh 9&-78 and PV pol inh intensity 109&98.
`Cc1cc(C(=O)COC(=O)C2CC(=O)N(Cc3ccccc3)C2)c(C)n1Cc1cccs1` (stereo not given) gave PV pol inh 101, Mtb MbtI inh 7, MenB inh -30 and PV pol inh intensity 109.
CCOC(=O)c1cc(-c2ccc(Cl)cc2)oc1C(F)(F)F was read as PV pol inh 108, Mtb MbtI inh -8, MenB inh -6 and PV pol inh intensity 103.
For Nc1ccccc1N1C(=O)c2ccccc2C1=O the results were PV pol inh 106, MenB inh -12 and PV pol inh intensity 106.
`Nn1c(SCc2ccccc2)nnc1-c1ccco1` gave PV pol inh 104, Mtb MbtI inh -2, MenB inh -4 and PV pol inh intensity 102.
Cc1nnc(NCc2ccccc2)c2ccccc12 was read as PV pol inh 101, Mtb MbtI inh 6, MenB inh 28 and PV pol inh intensity 99.
C=CCOC(c1ccccc1)c1nc2ccccc2n1CC=C (stereo not given) was read as PV pol inh 98, Mtb MbtI inh -14, MenB inh -14 and PV pol inh intensity 103.
For Cc1ccc(NCC(O)CN)c(Br)c1 (stereo not given) the results were PV pol inh 102, Mtb MbtI inh -5, MenB inh -2 and PV pol inh intensity 102.

Ten entries from above, sorted by heavy-atom count, falling:
`Cc1cc(C(=O)COC(=O)C2CC(=O)N(Cc3ccccc3)C2)c(C)n1Cc1cccs1` (stereo not given) gave PV pol inh 101, Mtb MbtI inh 7, MenB inh -30 and PV pol inh intensity 109.
CCN(CC)Cc1c(O)ccc2c(=O)c(-c3ccccc3Cl)coc12 was read as PV pol inh 102, Mtb MbtI inh 115, MenB inh 11 and PV pol inh intensity 100.
C=CCOC(c1ccccc1)c1nc2ccccc2n1CC=C (stereo not given) was read as PV pol inh 98, Mtb MbtI inh -14, MenB inh -14 and PV pol inh intensity 103.
`O=c1cc(-c2ccccc2)nc2cc(-c3ccccc3)[nH]n12` gave PV pol inh 104&99, Mtb MbtI inh -62&-14, MenB inh 9&-78 and PV pol inh intensity 109&98.
CCOC(=O)c1cc(-c2ccc(Cl)cc2)oc1C(F)(F)F was read as PV pol inh 108, Mtb MbtI inh -8, MenB inh -6 and PV pol inh intensity 103.
Screening O=c1cc(-c2ccco2)oc2c1ccc1ccccc12 returned PV pol inh 102, Mtb MbtI inh 22, MenB inh -28 and PV pol inh intensity 97.
`Nn1c(SCc2ccccc2)nnc1-c1ccco1` gave PV pol inh 104, Mtb MbtI inh -2, MenB inh -4 and PV pol inh intensity 102.
For Nc1ccccc1N1C(=O)c2ccccc2C1=O the results were PV pol inh 106, MenB inh -12 and PV pol inh intensity 106.
`COC(=O)Cc1csc(NC(C)(C)C)n1` gave PV pol inh 100, Mtb MbtI inh 0, MenB inh -19 and PV pol inh intensity 111.
For Cc1ccc(NCC(O)CN)c(Br)c1 (stereo not given) the results were PV pol inh 102, Mtb MbtI inh -5, MenB inh -2 and PV pol inh intensity 102.

Bioassay records deposited in PubChem by ICCB-Longwood Screening Facility, Harvard Medical School.
